# S aureus helic = blocks Staphylococcus aureus DNA helicase. inhibition, %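 (tested at about 80 µM)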. purified S. aureus helicase, fluorescence unwinding assay; about half of the hits fall short of the stated cut. hit rate 0.05% among 120,000. AID 485395;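 active = both duplicates at 50% or more, or one of them with a favoured structure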;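 note: 0% = mean of negative control wells and 100% = mean of positive control wells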
# MgrA-DNA mod = modulators of Staphylococcus aureus MgrA DNA binding; fluorescence polarization; inhibition, %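 (about 10 µg/mL by stock and volumes)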; hit rate 0.13% among 84,000; AID 602314;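 active = above 50% in either of two replicates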;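 note: 0% = protein plus DNA without compound and 100% = DNA alone without protein; higher means less MgrA bound to DNA so lower polarization; one replicate is shown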
# Numbers without * were called inactive; . = no result given. An excerpt; count on the stated rates, not on these rows.
SMILES	S aureus helic	MgrA-DNA mod
CCOC(=O)C(C)Oc1cc2oc(=O)c3c(c2cc1Cl)CCCC3 (stereo not drawn)	8	2.0
CC(C)NCC1CCCO1 (stereo not drawn)	5	2.2
CC1CCCC(C(=O)O)N1C(=O)CCS (stereo not drawn)	-1	-2.3
CC(C)N(Cc1ccccc1)C(=O)CSc1nc(C(C)(C)C)nc2c1c(=O)n(C)c(=O)n2C	8	.
CCC1CCCCN1CCCNC(=O)c1cc2c(=O)[nH]c3ccccc3c2n1C (stereo not drawn)	8	.
O=S(=O)(Nc1nc2ccccc2nc1Sc1nc2ccccc2o1)c1ccccc1	-8	.
O=C(O)CSCC(=O)Nc1nc(-c2ccc(F)c(F)c2)cs1	.	-2.1
O=C1CCN(C(=S)NCc2ccccc2)CC1	2	.
CN(C)S(=O)(=O)c1cccc(-c2cn3cc(Cl)ccc3n2)c1	21	-1.6
O=C(NN=C1CCCC1)c1ccc2c(c1)OCO2	1	.
COc1ccccc1N(Cc1ccccc1O)C(=O)COc1ccccc1C	-19	0.9
Cc1ccccc1N1C(=O)C2C=CC=CC2n2cnnc21 (stereo not drawn)	-20	.
Cc1oc(-c2ccccc2)nc1CSc1nc2ncccc2o1	-2	.
COc1ccc(C(=O)OCN2C(=O)c3ccccc3C2=O)cc1	14	1.2
Cc1cc(C)n2nc(SCC(=O)N(c3ccccc3)c3ccccc3)nc2n1	3	.
CC(C)C(=O)Nc1nc2ccc(Cl)cc2s1	7	.
COc1ccc(C(CC(=O)c2ccccc2)Sc2ccccc2N)cc1 (stereo not drawn)	.	0.4
COc1ccc(CN2CCN(c3ncnc4onc(-c5ccc(F)cc5)c34)CC2)c(OC)c1OC	37	.
NNC(=O)CSC(=S)N1CCCC1	18	.
N#Cc1ccccc1S(=O)(=O)N1CCN(S(=O)(=O)c2ccccc2C#N)CC1	0	1.8
O=C1CC2C(=O)NCCN2C(=NC(=O)c2ccccc2)N1 (stereo not drawn)	10	-2.4
O=C(NCCN1CCOCC1)NC(c1ccccc1)c1ccccc1	-13	.
COc1ccc2oc(=O)c(C(=O)N3c4ccccc4CC3C)cc2c1 (stereo not drawn)	0	1.1
CC(NC(=O)Cn1[nH]c(=O)c2ccccc2c1=O)c1ccc(S(N)(=O)=O)cc1 (stereo not drawn)	8	.
Cc1cc(C(=O)Nc2ccc(N3CCOCC3)cc2)c(C)s1	10	.

# 15 entries from above, arranged by SMILES length, smallest number first:
SMILES	S aureus helic	MgrA-DNA mod
CC(C)NCC1CCCO1 (stereo not drawn)	5	2.2
NNC(=O)CSC(=S)N1CCCC1	18	.
O=C1CCN(C(=S)NCc2ccccc2)CC1	2	.
CC(C)C(=O)Nc1nc2ccc(Cl)cc2s1	7	.
O=C(NN=C1CCCC1)c1ccc2c(c1)OCO2	1	.
Cc1oc(-c2ccccc2)nc1CSc1nc2ncccc2o1	-2	.
Cc1cc(C(=O)Nc2ccc(N3CCOCC3)cc2)c(C)s1	10	.
COc1ccc(C(=O)OCN2C(=O)c3ccccc3C2=O)cc1	14	1.2
COc1ccccc1N(Cc1ccccc1O)C(=O)COc1ccccc1C	-19	0.9
COc1ccc2oc(=O)c(C(=O)N3c4ccccc4CC3C)cc2c1 (stereo not drawn)	0	1.1
CN(C)S(=O)(=O)c1cccc(-c2cn3cc(Cl)ccc3n2)c1	21	-1.6
O=S(=O)(Nc1nc2ccccc2nc1Sc1nc2ccccc2o1)c1ccccc1	-8	.
CC(NC(=O)Cn1[nH]c(=O)c2ccccc2c1=O)c1ccc(S(N)(=O)=O)cc1 (stereo not drawn)	8	.
COc1ccc(CN2CCN(c3ncnc4onc(-c5ccc(F)cc5)c34)CC2)c(OC)c1OC	37	.
CC(C)N(Cc1ccccc1)C(=O)CSc1nc(C(C)(C)C)nc2c1c(=O)n(C)c(=O)n2C	8	.

# (list continues)
SMILES	S aureus helic	MgrA-DNA mod
C=CCC1c2cccc(C(=O)O)c2C(=O)N1c1ccc(OC)cc1 (stereo not drawn)	6	.
CCN(CC)CCCNc1ccc(-c2nnc(-c3ccc(OCC(C)C)cc3)o2)cn1	25	.
C/C(=N\N)c1c(-c2ccccc2)[nH][nH]c1=O	-6	.
CC(NC(=O)CSc1n[nH]c(N)n1)c1ccccc1 (stereo not drawn)	-15	.
CCN=C1Sc2nc3ccc(OCC)cc3cc2CN1CCOC	-10	19
O=C(O)CCCC(=O)Nc1ccc(Oc2ccccc2)cc1	.	-0.7
COc1ccccc1NC(=O)Cn1c(=O)n(Cc2ccccn2)c(=O)c2sc3ccccc3c21	19	0.0
O=C(CCn1c(=O)c2cccn2c2cccnc21)N1CCN(c2ccccn2)CC1	-23	.
O=C(Cc1cn2ccsc2n1)N/N=C/c1ccc2ncccc2c1	-5	.
O=S(=O)(c1ccccc1)c1ccccc1/C=N\O	6	-5.1
CN(C)C(=O)CSc1cccc2cccnc12	28	0.4
CC(Sc1nnc2n1CCCCC2)C(=O)c1c[nH]c2ccccc12 (stereo not drawn)	-5	.
CN(Cc1ccccc1)c1nc2c(S(=O)(=O)c3ccccc3)nnn2c2ccccc12	4	2.2
Cc1ccc(-n2cc(-c3ccccc3)c3c(NCCN4CCOCC4)ncnc32)cc1	3	.
COc1ccc(CCN2C(=O)CC(C(=O)Nc3ccc(C(=O)O)cc3)SC2=Nc2ccc(F)cc2)cc1 (stereo not drawn)	.	-0.1
CC(C)COC(=O)C(C)Nc1n[nH]c(=S)[nH]c1=O (stereo not drawn)	3	-1.5
O=C(O)CC(c1ccccc1)c1ccc2c(c1)OCO2 (stereo not drawn)	7	.
COc1ccc(-c2c(C)oc3cc(OC)ccc23)cc1	5	0.4
O=c1c(Cl)c(Cl)cnn1Cc1ccccc1	8	3.4
O=C(CCCc1cccs1)Nc1nccs1	-6	.
CCN1C(=O)/C(=C\c2ccc(OC)cc2)C(C(=O)OC)=C1C	-1	1.6
O=C(O)COCC(=O)Nc1ccc2c(c1)CCC2	5	-4.5
COc1ccc(NC(=O)CN2C(=O)C3C4C=CC(C4)C3C2=O)cc1 (stereo not drawn)	0	-2.2
CC(C)NC(=O)/C(=N\O)c1ccccc1	14	1.1
CCCNCC1CCCO1 (stereo not drawn)	12	-0.7
C=C(C)C1CC=C(CN2CCC(C(=O)OCC)CC2)CC1 (stereo not drawn)	8	-0.3
Fc1ccc(C2=Nn3c(Cc4ccccc4)nnc3SC2)cc1	-18	1.2
COC(=O)CC1C(=O)NC2CCCCC2N1C(=O)c1ccccc1 (stereo not drawn)	-23	.
Cc1cc(C)c(C)c(S(=O)(=O)N2CCN(CCn3c(C)csc3=O)CC2)c1C	1	.
CN(C)C(=O)c1ccc(Oc2ccc(C(=O)N(C)C)cc2)cc1	-4	0.7
C=Cn1cnc2c1c(=O)n(C)c(=O)n2C	-5	1.9
CCOC(=O)N/N=C/c1cccc2ccccc12	.	-2.2
O=C(/C=C/c1cccs1)Nc1ccccc1-c1nc2ccccc2o1	-20	.
CCNc1ccc(S(=O)(=O)C(F)(F)F)cc1NC(=O)C12CCC(CC1)C2	-11	-1.9
O=c1oc(-c2ccc(F)cc2)nc2sc3c(c12)CCC3	.	2.1
NC(=O)c1ccccc1NC(=O)c1ccc(C(=O)N(C2CCCCC2)C2CCCCC2)cc1	16	.
COc1ccc(Nc2cc(C)c(C#N)c3nc4ccccc4n23)cc1	8	1.0
CCn1c(C(=O)OC)cc(=O)c2cc(OC)ccc21	.	-0.4
O=C(NCc1ccco1)C1(c2ccccc2)CCCC1	14	2.2
CN1C(=O)/C(=C/c2cccn2C(C)(C)C)C(=O)NC1=S	23	.
CCS(=O)(=O)Cc1cccs1	6	1.6
O=C1CN(c2ccccc2)CC(=O)N1	16	0.9
CSCCC1C(=O)N(N)C2(C)CC(C)(C)NC(=S)N12 (stereo not drawn)	11	2.5
O=C(O)C1Cc2c([nH]c3ccccc23)C2(CCCCC2)N1 (stereo not drawn)	2	-2.4
Cn1c(=O)n(C)c2cc(N3CCOCC3)c(N)cc21	-17	.
CCOC(=O)c1cccc(NC(=O)NCc2noc3ccccc23)c1	-17	.
Cc1nc(-n2cccc2)sc1C(=O)N/N=C/c1ccccc1Cl	14	.
O=C(Nc1ccccc1C(=O)NCc1cccs1)c1ccccc1Cl	.	-0.7
CSC(=NCc1ccco1)NC#N	.	-6.7
Cc1c(C(=O)N/N=C/c2ccccc2)sc(=S)n1C	16	0.2

# The list continues:
SMILES	S aureus helic	MgrA-DNA mod
CC(NC(=O)Nc1ccccc1)C(=O)O (stereo not drawn)	-6	.
Cc1cc(C)nc(N2CCC(C(N)=O)CC2)n1	42	.
COc1cccc(NC(=O)COc2ccc(N3CC(C(=O)NCC(C)C)CC3=O)cc2)c1 (stereo not drawn)	8	0.0
CSc1ncc(C(=O)N(C)Cc2ccc3c(c2)OCO3)n1-c1ccccc1	12	.
CCOC(=O)c1oc2ccccc2c1COC(=O)CNS(=O)(=O)c1ccc2c(c1)OCCCO2	18	.
CN(C1CCCCC1)S(=O)(=O)c1ccccc1NC(=O)Cn1cnc2ccccc21	6	.
O=C(COc1ccccc1)Nc1c(-c2ccc(F)cc2)nc2ccccn12	13	.
O=C1CCCCCN1C(=O)c1ccccc1	-1	.
O=C1NN(c2ccccc2)C(=O)/C1=C/c1coc2ccccc2c1=O	19	7.9
CCOc1ccc2nc(SCC(=O)c3ccc(C)s3)sc2c1	4	2.5
CN(C(=O)CCc1ccccc1)c1nnc(-c2ccncc2)s1	6	12
CC[N+](C)(CC)C/C=C1/COCO1	4	3.4
COc1ccc(CCNC(=O)c2ccnc(C(C)(C)C)c2)cc1OC	15	4.8
CCCCC(=O)O[C@H]1CCC2C3CCc4cc(O)ccc4C3CC[C@@]21C (stereo partly drawn)	.	-0.5
CC(=O)NCc1ccc(C(=O)COC(=O)c2ccc(S(=O)(=O)N3CC(C)CC(C)C3)cc2)o1 (stereo not drawn)	-1	.
Nc1nc(CN2CCCC2c2ccc3c(c2)OCCCO3)nc(Nc2ccccc2)n1 (stereo not drawn)	2	.
COC(=O)/C=C1\NC2CCCCC2NC1=O (stereo not drawn)	5	-0.1
COc1cccc2cc(C(=O)N3CCCc4ccccc43)c(=O)oc12	8	.
COC(=O)/C=C1\SC(=NC(=O)c2cccc(Cl)c2)NC1=O	17	3.6
Cc1c(C#N)c(O)n(CCO)c(=O)c1N=Nc1cccc(C(=O)O)c1	-8	.
Cc1ccc(CNC(=O)c2cc3c(=O)[nH]c4ccccc4c3s2)cc1	-4	.
CN(C)/C=N/S(=O)(=O)c1ccc(-n2nc(C(F)(F)F)cc2-c2cccs2)cc1	.	2.2
O=C(c1c2c(nc3ccccc13)CCCC2)N1CCCCC1	16	.
CC(C)NS(=O)(=O)Cc1ccccc1	15	-1.2
CC(C)(C)NC(=O)CN1CCN(C(=O)CSc2nnc3c(n2)Nc2ccccc2S3)CC1	11	.
CCCCn1c(=O)c(CCC(=O)OCC(=O)c2ccc3c(c2)OCCO3)nc2ccccc21	-9	.
COc1ccc2c(c1)c(C(=O)CSc1nnc3c(n1)CCCC3)c(C)n2C	2	1.6
CCn1c(C)c(C2N3CC4(C(C)C)CN2CC(C(C)C)(C3)C4=O)c2ccccc21 (stereo not drawn)	11	.
CC(C)Sc1nnc(NC(=O)C(C)(C)C)s1	5	.
COc1ccc(-c2cc(C)no2)cc1S(=O)(=O)Nc1ccc(C)c(N(C)C)c1	-12	.
Fc1ccc(Nc2nc(Nc3ccc(F)cc3)nc(N3CCCCC3)n2)cc1	1	-0.2
CN1C(=O)C2C(c3ccccc3)NN(C)C2C1=O (stereo not drawn)	-16	.
CCCC1(C(=O)OC)NC(c2cc(OC)c(OC)c(OC)c2)C2C(=O)N(c3ccc(C)cc3)C(=O)C21 (stereo not drawn)	7	0.2
CCOC(=O)Cn1c(=O)n(Cc2ccc(C)cc2)c(=O)c2cccnc21	7	.
Nc1ccc2c(c1)nc1n2CCCCC1	-17	.
COc1ccc(CCN2CN=C(NC#N)NC2)cc1OC	4	-2.8
CC(C)CNC(=O)CSc1ccc(Cl)cc1	9	6.4
CN(C)C(=O)c1cc(-c2ccccc2)nc2ccccc12	11	.
CN1CCN(CC(=O)NCCc2ccc(F)cc2)CC1	7	-3.1
O=C1NC2(c3ccccc3)NC(=O)NC2(c2ccccc2)N1 (stereo not drawn)	-2	.
CC(C)(C)c1ccc(C(=O)NNC(=O)c2ccccc2[N+](=O)[O-])cc1	.	1.5
CO[C@H]1/C=C/O[C@@]2(C)Oc3c(C)c(O)c4c(O)c(c(C=NN5CCN(C)CC5)c(O)c4c3C2=O)NC(=O)/C(C)=C\C=C\C(C)[C@H](O)[C@@H](C)[C@@H](O)[C@@H](C)[C@@H](OC(C)=O)[C@@H]1C (stereo partly drawn)	.	3.4
S=c1[nH]c(-c2ccccc2)cn1/N=C/c1ccc2c(c1)OCCO2	32	.
O=C(CN1CCCc2ccccc21)N1CCCc2ccccc21	.	-1.1
O=[N+]([O-])c1cccc(C2Oc3ccccc3C3CC(c4ccccc4)=NN32)c1 (stereo not drawn)	.	-1.9
O=c1[nH]c(=S)[nH]c2sc3c(c12)CCC3	.	8.3
CC12CCC(c3c(C(F)(F)F)n[nH]c31)C2(C)C (stereo not drawn)	.	-3.4
Nc1ccc2nc(-c3ccc(N)c(Cl)c3)[nH]c2c1	-9	-0.4
Cc1cc(=O)n(C(N)=S)[nH]1	-1	4.0
CCC(=O)/C=C(\O)c1ccc(Br)cc1	-1	0.3
